From PubChem
HSD17B inhib = inhibitors of human HSD17B10 dehydrogenase. recombinant HSD17B10, NADH fluorescence kinetic; many of its hits are not listed in these tables. Potency, µM (highest dose often 57.1 µM), for the others: top-dose activity change, negative = inhibition, usual class: inhibitors. 7.6% of 75,000 active. AID 893; active = well fitted inhibition curve with a large enough effect; inconclusive = small, poorly fitted or top-dose-only effect; inactive = no such curve, though single readings can be large or run the other way;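 note: the protocol describes HADH2 (HSD17B10) and not the HSD17B4 of the title; nearly all actives have a fitted effect of over 70% in size; most hits overshoot -100% by far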
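20 nM HADH2, pH 9.0 Tris/Tween; cpd preinc 15 min RT; start w/ 1 mM NAD+ + 90 uM b-hydroxybutyryl-CoA; kinetic fluor ex360/em450 q30s x 4 min; delta last-first.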
Numbers without * were called inactive; ? = inconclusive; [ ] = another dose, or the depositor's remark. % is set by controls: 0 for no effect and ±100 for the full control effect; potency is the fitted concentration of half-maximal effect.

Start of the listing, in advance (4 entries):
SMILES | HSD17B inhib
CCC1=NC(c2ccc(OC)cc2OC)N(O)C1(C)C (stereo not drawn) | -5.7%
Cn1c(SCC(=O)c2ccccc2F)nnc1C1CC1 | -11.9%
CC(=NC1CCN(Cc2ccccc2)CC1)c1c(O)[nH]c(=O)[nH]c1=O | 3.7%
COc1ccc(-n2c(C)nc3c(cnn3-c3ccccc3)c2=O)cc1 | 1.9%

All compounds of this part, previewed entries included:
SMILES | HSD17B inhib
CCC1=NC(c2ccc(OC)cc2OC)N(O)C1(C)C (stereo not drawn) | -5.7%
Cn1c(SCC(=O)c2ccccc2F)nnc1C1CC1 | -11.9%
CC(=NC1CCN(Cc2ccccc2)CC1)c1c(O)[nH]c(=O)[nH]c1=O | 3.7%
COc1ccc(-n2c(C)nc3c(cnn3-c3ccccc3)c2=O)cc1 | 1.9%
CCc1cc2c(=O)n(N)c(CCC(=O)O)nc2s1 | -1.1%
OC[C@@H]1O[C@@H](n2cnc3c(SCc4ccccc4)ncnc32)[C@@H](O)[C@H]1O | 5.0%[11.4 µM]
Cc1cc(C)n(-c2nnc(C)c(=O)[nH]2)n1 | 3.7%
COc1nc2ccc(C)cc2cc1-c1noc(-c2cccnc2)n1 | -25.0%
Cc1ccc(S(=O)(=O)N(C)c2ccc(NS(C)(=O)=O)cc2)cc1 | 11.9%
COc1ccccc1CNc1ncncc1-c1ccc(C(=O)N(C)C)cc1 | ?
COCCn1c(C(=O)N2CCCC2)cc2c1C[C@H]1CN(C(=O)c3ccccc3)[C@@](Cc3ccccc3)(C(=O)OC)[C@@H]21 | 0.8%
Cn1c(=O)c2c(SCC(=O)c3ccccc3)nc(C3CC3)nc2n(C)c1=O | 0.3%
O=C(Nc1ccccc1C(=O)NC(Cc1c[nH]c2ccccc12)C(=O)O)c1ccco1 (stereo not drawn) | -1.9%
Cc1c(NC(=O)C2CCCN2S(=O)(=O)c2ccccc2)c(=O)n(-c2ccccc2)n1C (stereo not drawn) | 2.8%
CC1CCCCN1CC(=O)Nc1sc2c(c1C#N)CCC2 (stereo not drawn) | -19.4%
COC(=O)C1CCN(C(=O)c2ccc(Cl)c(S(=O)(=O)NCc3cccnc3)c2)CC1 | -2.3%
O=C(COc1ccc(Cl)cc1)Nc1ccccc1C(=O)NCc1ccco1 | -26.0%
CCCOc1ccc(C2c3c(oc4cc(C)c(C)cc4c3=O)C(=O)N2CCCN(C)C)cc1OCC (stereo not drawn) | 3.8%
COc1ccc(Cl)cc1NC(=O)CN1CCC(n2nnc3cc(C)ccc32)CC1 | 15.4%
CC(C)C(C(=O)Nc1ccc2c(c1)OCO2)N1C(=O)c2ccccc2C1=O (stereo not drawn) | -0.4%
C=CCn1c(SCC(=O)Nc2nc(C)cs2)nnc1C(CO)NC(=O)c1ccccc1 (stereo not drawn) | -0.2%
O=C1c2ccccc2-c2c1cccc2C(=O)N(CCO)CCO | 2.5%
N#Cc1nc(N)nc(N(c2ccccc2)c2ccccc2)n1 | -0.7%
CC(CN1CCOCC1)OC(=O)c1ccc(Br)cc1 (stereo not drawn) | 1.8%
CCC1=C2CC[C@H]3C(=O)N(C)C(=O)[C@H]3[C@H]2[C@@]2(Cc3ccccc3)C(=NCCOC)OC(=O)N2C1=O | 3.3%
CC(=O)Nc1cccc(NS(=O)(=O)c2cccc3nsnc23)c1 | 1.5%
Cc1nnc(C)c2c(C)n(C(C)c3ccccc3)c(C)c12 (stereo not drawn) | ?
CS(=O)(=O)N(CC(=O)N1CCCCC1)c1ccc2c(c1)OCO2 | 4.5%
Cc1ccc(S(=O)(=O)N2CCN(C(=O)C3CCCCC3)CC2)cc1 | -4.0%
Cc1ccc(C(=O)c2ccc(O)cc2)cc1C | -4.5%
CSCC[C@H](NC(=O)NCc1ccc(F)cc1)C(=O)O | 5.0%
CC(C)(C)c1ccc(C(=O)NCCC(=O)NCc2ccco2)cc1 | 7.9%
Cc1cc(OC(=O)N2CCOCC2)cc(C)c1Cl | 2.0%
CCOC(=O)C1CCN(C(=O)c2ccc(SC)cc2OC)CC1 | 4.2%
O=C(O)c1ccc(Cl)c(S(=O)(=O)NCc2ccco2)c1 | -7.1%
C=CCN(C(=O)CSc1nc2[nH]ncc2c(=O)n1-c1ccccc1OC)c1ccccc1 | 5.3%
COc1ccc(CCNC(=O)Cn2nnc(-c3cccs3)n2)cc1OC | 11.2%
COc1ccc(C(C(=O)OCCN(C)C)c2ccccc2)cc1 (stereo not drawn) | 10.6%
Cc1cccnc1N(C(=O)Nc1ccccc1)C1=NCC(C)(C)S1 | 12.5%
O=C(Oc1ccc(OC(=O)N2CCOCC2)cc1)c1ccccc1 | -6.4%
Cc1cc(C)nc(SCc2nnc(SCC(=O)N3CCOCC3)o2)n1 | -1.2%
CC1=C(C(=O)OCc2ccccc2)C(c2ccoc2)C(C#N)=C(N)O1 (stereo not drawn) | -13.9%
COc1ccccc1NC(=O)N(Cc1ccco1)Cc1cc2ccc(C)c(C)c2[nH]c1=O | -0.3%
O=C(c1ccc(CS(=O)(=O)c2cccc(C(F)(F)F)c2)o1)N1CCN(c2ccccn2)CC1 | 23.7%
Cc1cnc(CNc2ncncc2-c2cccc(NS(C)(=O)=O)c2)cn1 | 4.2%
O=c1c2ccccc2sc2c(CO)ccc(NCCN3CCCCC3)c12 | 0.1%[11.4 µM]
CCOc1ccccc1N1CCN(C(=O)c2ccncc2)CC1 | -1.6%
O=c1cc(-c2ccccc2)[nH]n1-c1nc2ccccc2s1 | ?
Cn1c(SCC(=O)Nc2ccccc2F)nnc1-c1ccc(S(=O)(=O)N2CCOCC2)cc1 | 8.4%
CC(C)(C)C1CCc2c(sc(NC(=O)c3cc(C4CC4)on3)c2C#N)C1 (stereo not drawn) | ?
CN(C)c1ccc(-c2ccccc2)nn1 | 8.2%
Clc1ccc(-c2nn3c(Cn4cnc5ccccc54)nnc3s2)c(Cl)c1 | 20µM*
COc1ccccc1NC(=O)C(C)Sc1nnnn1C (stereo not drawn) | 14.0%
Cn1c(=O)c2c(SCc3ccccn3)nc(C3CC3)nc2n(C)c1=O | -2.2%
CCS(=O)(=O)N1CCC(C(=O)NCCCN2CCCCCC2)CC1 | -5.1%
CCOC(=O)C1CCCN(Cc2ccccc2OCC)C1 (stereo not drawn) | 4.1%
Cn1c(CC(=O)Nc2ccccc2)nnc1SCCOc1ccccc1 | 11.2%
CNc1nc(-c2ccccc2Cl)nc2ccccc12 | -18.6%
COc1cc(C#CC#CCN2CCCCC2)ccc1O | -10.8%
O=C(O)C(CCCCN1C(=O)C2C3C=CC(C3)C2C1=O)N1C(=O)C2C3C=CC(C3)C2C1=O (stereo not drawn) | 6.2%
(continued)
SMILES | HSD17B inhib
O=C1COc2ccc(C(=O)CSc3nnc(-c4cccs4)n3Cc3ccccc3)cc2N1 | -9.2%
O=C(C1Cc2ccccc2CN1S(=O)(=O)c1cccs1)N1CCCCC1 (stereo not drawn) | -6.5%
C/C(Cl)=C/CSc1nc2c(c(=O)[nH]c(=O)n2C)n1C(C)C | -0.8%
CCc1ccc(S(=O)(=O)NC(CC(=O)O)c2ccccc2)cc1 (stereo not drawn) | 11.3%
CCCNC(=O)c1c(N)n(-c2ccc3c(c2)OCO3)c2nc3ccccc3nc12 | -8.8%
CCOC(=O)C1CCN(C(=O)CN(c2cccc(OC)c2)S(=O)(=O)c2ccccc2)CC1 | 7.1%
CC(C)CC(NC(=O)C1CCC(C)CC1)C(=O)Nc1ccccn1 (stereo not drawn) | 5.6%
CN(C)c1ccc(CN2CCCCCC2)cc1 | 0.1%
O=C1CCc2cc(S(=O)(=O)NC(Cc3ccccc3)C(=O)NC3CCCC3)ccc2N1 (stereo not drawn) | 1.9%
COc1ccc(-c2nnn(CCc3nn[nH]n3)n2)cc1OC | 12.9%
COc1cccc(C(=O)N(CN2CCCC2=O)c2cccc(Cl)c2)c1 | -6.1%
Cc1cc2ncn(CCOc3ccccc3C#N)c2cc1C | -3.1%
O=C(CN1CCOc2ccccc21)NCc1ccccc1 | 5.3%
Cc1onc(-c2c(Cl)cccc2Cl)c1C(=O)Nc1c(C)n(C)n(-c2ccccc2)c1=O | -0.4%
C[N+]1(CCCCC[N+]2(C)CCCC2)CCCC1 | -1.6%
CC1=Nn2c(nnc2-c2ccccc2Cl)SC1 | 19.9%
COc1cc2c(C#N)c(N3CCc4ccccc4C3)nc(N)c2c(N)n1 | 25.1µM*
C[N+]1=C2CCCCCN2C(O)(c2ccccc2)C1 (stereo not drawn) | -2.3%
COc1ccc(C2CC(C(F)(F)F)n3nc(C(N)=O)c(Cl)c3N2)cc1OC (stereo not drawn) | 6.8%
CCOC(=O)C(C(=O)Nc1cccc(C)n1)C1CCCCC1 (stereo not drawn) | 3.9%
Cc1c(F)cccc1NS(=O)(=O)c1ccccc1C#N | 2.8%
CC1(C)CC(=O)C=C(Nc2ccccn2)C1 | -4.3%
Cc1ccc(Cn2nnc3c(=O)n(CC(=O)c4ccccc4)cnc32)cc1 | 5.0%
COc1ccc(N2C3=[N+](CC2(C)O)c2ccccc2CC3)cc1 (stereo not drawn) | -3.2%
O=C(CCC1CCCC1)N1CCN(C(=O)COc2ccccc2)CC1 | 3.4%
CCCn1c(-c2ccc(F)cc2)nc2c(NCCN3CCCC3)nc(C)nc21 | 31.6µM*
Cn1c(C(=O)N2CCN(c3ccccn3)CC2)cc2c(=O)n(C)c3ccccc3c21 | 11.7%
NC(=O)SCC(=O)Nc1ccc(Cl)cc1 | -10.9%
COC(=O)CSc1nc(N)c(C#N)c(C(C)C)c1C#N | ?
CC1(C)Cc2ccccc2-c2nnc(SCC(=O)Nc3nc4ccccc4s3)n21 | -19.7%
COc1ccc(CCNC(=O)CSc2nnc(-c3ccc(F)cc3)o2)cc1OC | -13.4%
CCC(=O)N1CCCc2cc(S(=O)(=O)N3CCN(C4CCCCC4)CC3)ccc21 | 15.8%
Cc1cccc(NC(=O)N2CCC(NC(=O)c3ccccc3C)CC2)c1 | 12.6%
CN(C)S(=O)(=O)c1cccc(C(=O)OCC(=O)Nc2sccc2C(N)=O)c1 | 6.0%
COc1cccc(CN(C)C(=O)c2ccc(S(=O)(=O)N3CCCC3)cc2)c1OC | 1.5%
c1ccc(-c2ncnc3nc4n(c23)CCC4)cc1 | 3.4%
Oc1cc(Cc2ccccc2)cnc1CN1CCCCC1 | 3.2%
CS(=O)(=O)Nc1cccc(-c2cncnc2NCc2cccnc2)c1 | 4.6%
O=C(O)c1cc2c(s1)-c1ccccc1OC2 | 31.6µM*
Cc1cc(=S)[nH]c2ccccc12 | -11.3%

Two of these compounds, reformatted.
Compound,HSD17B inhib
COc1cccc(CN(C)C(=O)c2ccc(S(=O)(=O)N3CCCC3)cc2)c1OC,1.5%
c1ccc(-c2ncnc3nc4n(c23)CCC4)cc1,3.4%

Back to the main list; the four compounds before the break are reprinted first.
SMILES | HSD17B inhib
Oc1cc(Cc2ccccc2)cnc1CN1CCCCC1 | 3.2%
CS(=O)(=O)Nc1cccc(-c2cncnc2NCc2cccnc2)c1 | 4.6%
O=C(O)c1cc2c(s1)-c1ccccc1OC2 | 31.6µM*
Cc1cc(=S)[nH]c2ccccc12 | -11.3%
COc1ccc(NC(=O)c2c(OC)cccc2OC)c(OC)c1 | 4.8%
CCCCC#Cc1nc(NC)c2ncn([C@@H]3O[C@@H](CO)[C@H](O)[C@H]3O)c2n1 | -5.8%
CCCn1nnc(NC(=O)c2cccc(OCC(C)C)c2)n1 | 3.0%
Cc1cc(C)c2nc(N3CCCN(C(=O)c4cnccn4)CC3)c(C#N)cc2c1 | -7.9%
Nc1ccc(C(=O)Oc2ccccc2)c(O)c1 | 3.7%
O=C(Nc1ccc(Cl)cc1C(=O)NCC1CCCO1)c1ccco1 (stereo not drawn) | -3.1%
CCOC(=O)CSc1nnnn1-c1cc(OC)ccc1OC | 1.7%
Cc1ccc2c(c1)c1ncnc(N3CCOCC3)c1n2C | 25.1µM*
CCn1c(=O)c(C2=NS(=O)(=O)c3ccccc3N2)c(O)c2ccccc21 | -11.9%
O=c1c(F)cn(C2CCCO2)c(=O)n1Cc1c(F)cccc1Cl (stereo not drawn) | -4.6%
Cc1nc2cc(Cl)c(Cl)cc2nc1C | -9.1%
O=C(Oc1cccc(Br)c1)c1cccnc1 | -5.0%
O=C(c1ccco1)N1CCN=C1SCc1ccccc1F | 0.3%
Cc1cccc(-n2ccnc2SCC(=O)Nc2nccs2)c1 | -2.4%
O=C(CC1(O)C(=O)Nc2ccccc21)c1ccccc1 (stereo not drawn) | -3.4%
O=C(O)CSc1nnc(-c2ccccc2O)n1Cc1ccccc1 | -6.6%
O=C(Nc1ccccc1-c1ccccc1)c1cnccn1 | 1.9%
COC(=O)c1ccc2nc(NC(=O)CN3C(=O)CCC3=O)sc2c1 | -25.8%
O=C(CSc1nc2ccccc2s1)NC(=O)NCc1ccco1 | ?
O=C(COc1cccc2ccccc12)N1CCN(c2ccccn2)CC1 | ?
c1ccc2sc(SCN(C3CCCCC3)C3CCCCC3)nc2c1 | -1.7%[11.4 µM]
Cc1oc(C(C)(C)C)cc1C(=O)NCC(=O)NCC(=O)O | -0.1%
Cc1onc(-c2ccccc2Cl)c1C(=O)N1CCCc2ccccc21 | -14.6%
CO[C@H]1COC(=O)[C@H](Cc2ccccc2)NC(=O)C/C=C\[C@@H](C)[C@H](OC)COC(=O)C/C=C\[C@@H]1C | -5.4%[11.4 µM]
CC(C)=CCCC(C)C1CC[C@@]2(C)C3=C(CC[C@@]12C)C1(C)CCC(O)C(C)(C)C1CC3 (stereo partly drawn) | -9.9%
Cc1ccc(S(=O)(=O)N2CCN(C(=O)N3CCOCC3)C2C)cc1 (stereo not drawn) | 12.3%
C=CCn1c(SCC(=O)NC2CCCCC2)nnc1-c1ccc(OC)cc1 | 1.2%
CC(C)N(CCc1ccncc1)C(=O)Nc1ccc(F)cc1 | 4.8%
Fc1ccc(CSc2nncn2NCc2ccc3c(c2)OCO3)cc1 | -1.1%

The list is partial, so the mix of outcomes need not match the whole.
